# Screens (PubChem BioAssay)
# Mtb betalactam: beta-lactam sensitization of Mtb H37Rv, H37Rv; AID 434955, 2010; inhibition, % at 25 µM; 0.27% of 330,000 active; M. tuberculosis H37Rv growth with meropenem, percent inhibition; hits of this screen are not shown here;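 active = about 74% or more and at least 40 points above the plate without the antibiotic, then above 30% in a dose series; inconclusive = first-round hits that could not be retested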;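 note: growth measured after seven days incubation then overnight dye step; 0% = bacteria only wells and 100% = bacteria with antibiotic; twin plates without the antibiotic show which effects depend on it; some results filed as inactive read as strong as hits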
# RecA splice inh: Mtb RecA intein splicing inhibitors, primary screen, biochemical, fluorescence, HTS | Protein RecA (Mycobacterium tuberculosis (strain ATCC 25618 / H37Rv)), P9WHJ3 | cell-free RecA intein splicing | inhibition, %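 (about 9 µM by stock and volumes)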 | 0.75% of 290,000 active; in the data active = inhibition above about 30%; inconclusive = no clear call, values can overlap the other calls;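 note: 0% = vehicle wells and 100% = reference inhibitor control wells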
# Target sequence (P9WHJ3 whole entry, looked up, canonical isoform): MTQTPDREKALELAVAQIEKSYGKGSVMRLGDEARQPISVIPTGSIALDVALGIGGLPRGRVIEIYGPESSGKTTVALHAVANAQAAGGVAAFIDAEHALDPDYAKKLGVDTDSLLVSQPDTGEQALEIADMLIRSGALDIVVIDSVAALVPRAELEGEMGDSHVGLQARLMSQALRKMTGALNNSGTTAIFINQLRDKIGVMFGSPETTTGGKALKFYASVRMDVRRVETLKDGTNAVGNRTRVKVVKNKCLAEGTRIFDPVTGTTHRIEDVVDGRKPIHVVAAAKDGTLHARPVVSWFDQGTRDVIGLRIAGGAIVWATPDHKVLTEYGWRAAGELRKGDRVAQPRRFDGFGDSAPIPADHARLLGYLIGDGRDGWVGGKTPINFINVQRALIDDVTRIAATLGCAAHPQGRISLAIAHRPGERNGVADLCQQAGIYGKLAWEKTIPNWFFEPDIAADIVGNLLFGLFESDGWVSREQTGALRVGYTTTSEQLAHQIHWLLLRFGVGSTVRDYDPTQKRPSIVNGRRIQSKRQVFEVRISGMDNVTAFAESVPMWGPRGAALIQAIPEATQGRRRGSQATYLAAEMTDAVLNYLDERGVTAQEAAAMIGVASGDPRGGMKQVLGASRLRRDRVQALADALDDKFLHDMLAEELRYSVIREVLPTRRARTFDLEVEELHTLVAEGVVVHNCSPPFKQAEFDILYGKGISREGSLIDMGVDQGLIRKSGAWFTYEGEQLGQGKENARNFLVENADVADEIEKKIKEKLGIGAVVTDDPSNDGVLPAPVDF
# YopH inh: YopH tyrosine phosphatase inhibitors, primary screen, biochemical, fluorescence Ex485/Em525 | inhibition, %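 (about 10 µM by stock and volumes)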 | 0.16% of 140,000 active | AID 898, 2007;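 active = inhibition of 50% or more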;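 note: controls were vehicle for no effect and minimum signal wells for full effect; inactives centre near -20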
# Mtb growth: M. tuberculosis H37Rv growth inhibitors, H37Rv strain (AID 1626). M. tuberculosis H37Rv growth inhibition; higher % means a stronger effect. inhibition, % at 10 µM; hits with a dose series show IC50 in µM. 0.95% of 220,000 active;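 active = confirmed in a dose series; inconclusive = inhibition above 80% but not taken into the dose series; inactive = below 80% or under 30% at every dose of the series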;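 note: bacteria incubated seven days before Alamar blue readout; 0% = bacteria only wells and 100% = bacteria with antibiotic wells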
# Arbovirus inh: antivirals against arbovirus infection, primary screen, cell-based, full library, 10K replicate subset; arbovirus infection cell-based antiviral screen; inhibition, % at 10 µM; 0.37% of 200,000 active;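 active = inhibition from about 30%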;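 note: bluetongue infection of BSR cells; cell survival read as ATP light after 72 h; 0% = infected wells without compound and 100% = uninfected wells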
# Arbovirus inh repeat: recorded beside Arbovirus inh, whose call it bears; inhibition, %; measured here: 10K subset replicate screen; many hits read low in the repeat;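 first of two repeat runs on a subset; 0% = infected and 100% = uninfected wells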
# Numbers without * were called inactive; ? = inconclusive; / = not tested or not shown. These rows are one share of the data; rates above refer to the full screens.
SMILES,Mtb betalactam,RecA splice inh,YopH inh,Mtb growth,Arbovirus inh,others
O=C(CCC(=O)NCc1ccccc1)NCc1ccccc1,-5,0.9,/,/,/,
COc1ccc(CCNC(=O)CCNS(=O)(=O)c2cccc3nsnc23)cc1OC,0,0.1,-12,-2%,1,Arbovirus inh repeat=7
COc1cc(S(=O)(=O)N(Cc2cccs2)C2CC2)ccc1-n1cnnn1,14,-1.2,-7,-1%,5,
CCOCCCNc1nc(C(F)(F)F)nc2c1nnn2Cc1ccccc1Cl,6,0.3,/,/,/,
O=C(NCc1ccco1)Nc1cccc([N+](=O)[O-])c1,/,0.2,/,0%,/,
N#Cc1c(NC(=O)c2ccc(N3CCOCC3)c([N+](=O)[O-])c2)sc2c1CCCC2,-9,-2.0,-9,9%,3,
COc1ccc(C2CC(=O)C=C(NCCC(C)C)C2)cc1 (stereo not drawn),-3,1.2,10,-2%,6,
COc1cccc2cc(-c3n[nH]c(=S)n3C)oc12,-1,1.0,/,/,5,
CCOC(=O)/C(=N\Nc1cc(C(F)(F)F)ccc1Cl)N(CC)CC,5,1.8,3,-8%,-11,
O=C(O)CSc1nc(-c2ccccc2)cc(=O)[nH]1,-2,-2.5,-17,-7%,13,
Cc1c(NC(=O)CSc2nncc3ccccc23)c(=O)n(-c2ccccc2)n1C,-14,1.5,-31,-6%,2,
CS(=O)(=O)N1CCN(C(=O)c2ccc(-c3ccccc3)cc2)CC1,0,2.1,-17,-7%,4,
Cc1ccc(NC(=S)NCC2CCCO2)cc1 (stereo not drawn),-6,2.5,-19,2%,9,
CCC(c1nnnn1CCc1ccccc1)N1CCN(C(=O)c2ccco2)CC1 (stereo not drawn),-7,-104,-40,7%,-5,
COc1ccc(OC)c(CNC(=O)C2CCN(S(=O)(=O)N3CCCCC3)CC2)c1,-1,-5.5,/,/,/,
O=C(c1ccc(NC(=S)Nc2ccc(Cl)c(Cl)c2)cc1)N1CCCC1,75,3.5,-24,?,13,
Cc1cc(C)c(NC(=S)N(CCc2ccncc2)C(C)C)c(C)c1,-3,-2.1,/,-1%,0,
CNC(=S)Nc1ccc(OCc2ccccc2)cc1,91,0.1,/,24%,-6,
COc1ccc(NC(=S)N2CCCN(Cc3cccc(Cl)c3)C2)cc1,-3,8.3,/,-5%,3,
CCOC(=O)C/C(C)=N/NC(=O)C1CC1(c1ccccc1)c1ccccc1 (stereo not drawn),3,11,-26,4%,-7,
CCCC(=O)n1nc(NCc2ccc(OC)cc2)nc1NCc1ccc(OC)cc1,5,-1.2,/,7%,11,
O=C1c2cccc3c(O)ccc(c23)C(=O)N1c1ccc(Cl)cc1,-4,-64,/,/,/,
CSCCC(NC(=O)c1ccccc1Cl)C(=O)N(C)Cc1cccs1 (stereo not drawn),-5,-0.4,/,/,/,
O=C(COc1ccc(Br)cc1)NCc1ccccn1,-5,2.5,-13,0%,16,
CCOC(=O)c1c(C=O)c(C)n(Cc2ccccc2Cl)c1C,-2,/,5,-17%,1,
Cc1nn(Cc2ccccc2)c(Cl)c1C(=O)NCc1ccco1,18,-0.6,/,60%,-5,
CC(C)(C)OC(=O)NC(CCNC=C1C(=O)OC(C)(C)OC1=O)C(=O)O (stereo not drawn),-4,-1.0,-9,-5%,3,
CCc1nc(N[C@@H](CC(C)C)C(=O)O)c2oc3ccccc3c2n1,-5,-0.6,-11,-1%,7,
CCOC(=O)/C(N=Nc1sc(C(=O)OCC)c(C)c1C(=O)OCC)=C(\C)O,-1,-4.4,-48,7%,-12,
Cc1ccc2c(c1Cl)NC(C(=O)O)C1CC(Sc3ccccc3[N+](=O)[O-])C(Cl)C21 (stereo not drawn),0,/,/,4%,/,
Cc1nn(Cc2ccc(Cl)c(Cl)c2)c(C)c1NC(=O)c1cc(-c2ccco2)on1,12,4.4,5,-8%,2,
O=C(CC1C(=O)NCCN1CC1CCCCC1)NC1(c2ccccc2)CC1 (stereo not drawn),1,4.3,/,-8%,6,
CC(OC(=O)c1nc(-c2ccccc2)n(-c2ccccc2)n1)C(=O)Nc1cc(Cl)cc(Cl)c1 (stereo not drawn),-3,7.1,-22,-4%,3,
Cc1ccc(C)c(N(CC(=O)NC(C)(C)C)C(=O)CNC(=O)c2cccs2)c1,-6,1.5,/,-11%,4,
Cc1ccc2oc(C(=O)N(Cc3ccc(N(C)C)cc3)C3CCS(=O)(=O)C3)c(C)c2c1 (stereo not drawn),-10,5.8,/,/,/,
CCC(C)NC(=O)Cn1cnc2sc(C)cc2c1=O (stereo not drawn),-9,-0.3,-33,5%,-11,
COc1ccc(C(=O)NC2CCCc3ccccc32)cc1Br (stereo not drawn),0,11,/,/,/,
CC/C(O)=C1\C(=O)CC(c2ccccc2)CC1=NC(C)C (stereo not drawn),11,0.8,-41,-1%,4,
CC(C)OC(=O)Cn1nnc(-c2ccccc2)n1,-4,/,0,-2%,-6,
CCN(C(=O)c1ccc(Br)cc1)c1ccccc1,-1,1.4,/,1%,-5,
c1csc(-c2csc(-c3cccs3)n2)c1,5,7.7,-8,-4%,-6,
O=C1NC(c2ccc(Cl)cc2Cl)Oc2ccccc21 (stereo not drawn),-6,-2.9,/,/,/,
COc1ccc(C(=O)/C=C/c2ccc(OC)c(O)c2)c(F)c1,81,-1.8,-12,8%,-36,
CCOC(=O)CNC(=O)N1CCc2ccc(NC(=O)c3ccccc3OC)cc2C1,0,1.9,/,/,/,
CC1CN(C(=O)c2cccc(S(=O)(=O)Nc3cc(Cl)ccc3Cl)c2)CC(C)O1 (stereo not drawn),-4,-0.8,/,3%,18,
CCC(C)c1ccc(S(=O)(=O)N2CCN(C(=O)COc3ccc4c(C)cc(=O)oc4c3)CC2)cc1 (stereo not drawn),-28,0.0,-16,-4%,9,
Cc1ccc(C(=O)NCCCn2ccnc2)cc1[N+](=O)[O-],4,-3.7,-34,-1%,1,
Cc1ccc(C(=O)OCC(=O)Nc2cc(S(=O)(=O)N3CCOCC3)ccc2C)cc1,4,2.6,/,3%,2,
NC(=O)C12CCCC(Br)(CCC1)C2,-10,-3.3,/,-7%,/,
CNC(=O)Nc1cc(C(C)(C)C)no1,5,1.0,-21,-3%,5,

# Remaining list, next part.
SMILES,Mtb betalactam,RecA splice inh,YopH inh,Mtb growth,Arbovirus inh,others
NS(=O)(=O)c1ccc(CCNc2nc3c(-c4cccc(F)c4)nnn3c3ccccc23)cc1,-4,-6.0,-17,3%,21,
CSc1nc(-c2ccco2)nn1S(=O)(=O)c1ccccc1,13,4.3,19,/,-2,
CCONC(=O)Nc1ccccc1[N+](=O)[O-],2,-1.5,-26,7%,1,
O=C(CN1CCCCC1)c1c[nH]c2ccccc12,-7,-0.4,/,/,/,
Cc1[nH]n(-c2ccc([N+](=O)[O-])cc2)c(=O)c1C=NCCc1c[nH]c2ccccc12,3,-4.5,-7,-2%,-24,
CCC(=O)c1ccc2ncccc2c1,-2,-3.1,-11,5%,5,
CCc1cc2c(COC(=O)c3cccc(NS(C)(=O)=O)c3)cc(=O)oc2cc1O,7,-9.1,/,/,/,
COc1cccc(-n2c(CNc3ccc(F)cc3)nnc2SCC(N)=O)c1,-3,3.5,-202,-2%,5,
O=C(Nc1ccc(Cl)cc1)Nc1ccc2c(c1)N1CCN=C1S2,-10,3.5,6,-3%,-3,
Cc1nc2ccccc2c(=O)n1NC(=O)c1ccc(Cl)c([N+](=O)[O-])c1,-6,2.9,/,/,/,
CCc1ccc2nc(SCC(=O)N(CC)CC)c(C#N)cc2c1,2,0.8,-27,9%,-4,
O=C(O)c1ccccc1S(=O)CCO (stereo not drawn),4,-3.0,-17,-15%,-3,
Cc1cc(SCC(=O)N(C)c2c(N)n(Cc3ccccc3)c(=O)[nH]c2=O)nc2ccccc12,-2,-2.3,/,2%,1,
Nc1nccnc1C(=O)OCC(=O)NCCc1ccc(S(N)(=O)=O)cc1,-7,1.2,/,/,/,
Cc1cnc(C(=O)OCC(=O)Nc2ccc(C)c(S(=O)(=O)N3CCCCCC3)c2)cn1,-1,0.5,/,3%,2,
COc1ccc(S(=O)(=O)n2nc(OC(=O)c3ccncc3)cc2N)cc1,-2,2.0,/,4%,-1,
CC1=C(C(=O)N2CCC3(CC2)OCCO3)C2(CCC(C)CC2)OC1=O (stereo not drawn),-6,2.8,-42,-3%,2,
Cc1ccc(N=CC=C2OC(C)(C)C(C)(C)O2)cc1,11,-28,-40,7%,5,
Cc1ccc(C(=O)n2c(=S)nc3ccccn32)cc1,/,1.0,-17,/,2,
COc1cc(OC)c(C2C(C#N)=C(N)Oc3cc(C)n(CCCN4CCOCC4)c(=O)c32)cc1OC (stereo not drawn),-2,0.4,-17,-8%,9,

# Looked up by compound from the list above:
SMILES,Mtb betalactam,RecA splice inh,YopH inh,Mtb growth,Arbovirus inh,others
Cc1cc(SCC(=O)N(C)c2c(N)n(Cc3ccccc3)c(=O)[nH]c2=O)nc2ccccc12,-2,-2.3,/,2%,1,
Cc1cnc(C(=O)OCC(=O)Nc2ccc(C)c(S(=O)(=O)N3CCCCCC3)c2)cn1,-1,0.5,/,3%,2,

# Further compounds follow.
SMILES,Mtb betalactam,RecA splice inh,YopH inh,Mtb growth,Arbovirus inh,others
O=C(CN1C(=O)CSC1=O)Nc1ccccc1N1CCOCC1,-7,-0.2,-38,-10%,12,
COc1ccc(C(=O)Nc2cccc3nc(C)ccc23)c(OC)c1,69,-1.5,/,/,/,
CCS(=O)(=O)N1Cc2ccccc2CC1C(=O)Nc1ccc(F)cc1 (stereo not drawn),-7,0.0,/,10%,/,
Clc1ccc(COc2ccccc2-c2ccnc3ncnn23)cc1,5,4.6,/,8%,-4,
O=C(c1cccs1)N1N=C(c2ccccc2)CC1c1ccc(O)cc1 (stereo not drawn),8,-1.6,-25,4%,-16,
CN(C(=O)CSc1nnc(COc2ccccc2F)n1N)C1CCS(=O)(=O)C1 (stereo not drawn),-11,0.9,/,/,/,
COC(=O)c1ccc(OC(=O)c2cnccn2)cc1,9,-3.4,/,/,/,
Cc1csc(NC(=O)CSc2nnc3c4ccccc4nc(C(C)(C)C)n23)n1,6,7.0,-6,-7%,-18,
CC(C)c1ccc(N(CC(=O)NCCSCc2ccco2)S(C)(=O)=O)cc1,-5,1.9,/,-10%,-4,
CSc1ncc(Cl)c(C(=O)Nc2ccccc2[N+](=O)[O-])n1,0,-5.0,/,/,/,

# 6 entries from above, sorted by number of heavy atoms, high to low:
SMILES,Mtb betalactam,RecA splice inh,YopH inh,Mtb growth,Arbovirus inh,others
CN(C(=O)CSc1nnc(COc2ccccc2F)n1N)C1CCS(=O)(=O)C1 (stereo not drawn),-11,0.9,/,/,/,
CC(C)c1ccc(N(CC(=O)NCCSCc2ccco2)S(C)(=O)=O)cc1,-5,1.9,/,-10%,-4,
O=C(c1cccs1)N1N=C(c2ccccc2)CC1c1ccc(O)cc1 (stereo not drawn),8,-1.6,-25,4%,-16,
Clc1ccc(COc2ccccc2-c2ccnc3ncnn23)cc1,5,4.6,/,8%,-4,
O=C(CN1C(=O)CSC1=O)Nc1ccccc1N1CCOCC1,-7,-0.2,-38,-10%,12,
CSc1ncc(Cl)c(C(=O)Nc2ccccc2[N+](=O)[O-])n1,0,-5.0,/,/,/,

# (further entries)
SMILES,Mtb betalactam,RecA splice inh,YopH inh,Mtb growth,Arbovirus inh,others
CCOC(=O)c1oc2c(c1C)/C(=N/O)CCC2,-11,0.0,-19,/,3,
CC(C)=C1C2CCC1C(C(=O)NCCc1ccccc1)C2C(=O)O (stereo not drawn),2,-2.4,-7,-2%,-2,
CCOc1ccc(C2C(C(=O)Nc3ccc(F)cc3)=C(C)Nc3nc(CCCO)nn32)cc1 (stereo not drawn),?,0.3,-44,0%,-4,Arbovirus inh repeat=-3
Cc1c(NS(=O)(=O)c2cccc3nsnc23)c(=O)n(-c2ccccc2)n1C,4,1.2,-30,-5%,6,
CCOc1ccc(N(CC(=O)Nc2ccc(CC)cc2)S(=O)(=O)c2c(C)[nH]c(=O)[nH]c2=O)cc1,-4,4.8,/,/,/,
Cc1ccc2c(c1)CCCN2C(=O)c1ccco1,59,/,1,0%,-5,
